# Screening data deposited in PubChem by National Center for Advancing Translational Sciences (NCATS).
# HSD17B inh – qHTS Assay for Inhibitors of HSD17B4, hydroxysteroid (17-beta) dehydrogenase 4. Potency, µM (doses to about 57.1 µM), for inactives: at the highest dose activity change, negative = inhibition, hits mostly inhibitors. 3-hydroxyacyl-CoA dehydrogenase type-2 (Homo sapiens), Q99714. recombinant HSD17B10, NADH fluorescence kinetic; many of its hits are not listed in these tables. 75,000 tested, 7.6% active. AID 893, 2007; active means well fitted inhibition curve with a large enough effect; inconclusive means small, poorly fitted or top-dose-only effect; inactive means no such curve, though single readings can be large or run the other way;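 further: the protocol describes HADH2 (HSD17B10) and not the HSD17B4 of the title; nearly all actives have a fitted effect of over 70% in size; most hits overshoot -100% by far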
#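 His-tagged E. coli-expressed HADH2 at 20 nM in 100 mM Tris-HCl pH 9.0 with 0.01 % Tween-20, preincubated 15 min with compound at room temperature. Reaction with 1 mM NAD+ and 90 uM beta-hydroxybutyryl coenzyme A; NADH fluorescence (360/450 nm) read kinetically over 4 min, last minus first point.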
# Numbers without * were called inactive; ? = inconclusive; [ ] = dose if it differs, or a comment. On the % scale 0 is the no-effect control and ±100 the full control effect; potency means the concentration at half of the fitted maximal effect. The list is partial (hit frequency here may not be typical).
SMILES,HSD17B inh
COc1ccc(C2c3c(oc4ccc(C)cc4c3=O)C(=O)N2c2cc(C)ccn2)cc1OC (stereo unspecified),0%
CCN1CCN(CCNC(=O)CS(=O)(=O)Cc2nc(-c3ccc(C)cc3)oc2C)CC1,5%
COc1ccc(C2CC(c3c(O)cc(C)oc3=O)=NCCS2)c(OC)c1 (stereo unspecified),-2%
CCOC(=O)C1C(=O)NC(N2CCCCC2)=NC1C(C)C (stereo unspecified),4%
CN=C1SC(CC(=O)Nc2ccccc2F)C(=O)N1C (stereo unspecified),10%
COCCn1c(C)cc(C(=O)CSc2nc3ccccc3o2)c1C,-26%
O=C(CSc1ccc2nnc(-c3ccccn3)n2n1)Nc1ccc2c(c1)OCCO2,6%
COC(=O)Cc1cc(=O)[nH]c(/N=C(/NC(=O)c2ccccc2)Nc2ccccc2C)n1,-7%
COc1ccc(/C(O)=C2\C(=O)C(=O)N(CCN(C)C)C2c2cc(OC)c(OC)c(OC)c2)c(C)c1 (stereo unspecified),2%
Fc1cccc(-n2c(-c3ccco3)nc3nc4ccccc4nc32)c1,1.3µM*
O=C(Nc1ccccc1)N1CCN(Cc2ccc3c(c2)OCO3)CC1,11%
COc1cc2c(cc1OC)C(COc1ccc(F)cc1)N(C(=O)c1ccco1)CC2 (stereo unspecified),-20%
CCOC(=O)CSc1nnc(CNC(=O)c2ccc(OC)cc2)n1C1CCCCC1,-6%
CCc1ccccc1NC(=O)Cn1nnc(-c2cccs2)n1,38%[activator]
N#Cc1c(NC(NC(=O)c2ccco2)C(=O)c2ccccc2)sc2c1CCCC2 (stereo unspecified),-1%
COc1ccc(N2CCN(C(=O)CCNS(=O)(=O)c3ccc4c(c3)CCC(=O)N4)CC2)cc1,-7%
C=CCn1c(SCC(=O)Nc2ccc(C)cc2C)nnc1-c1cccnc1,3%
CCn1c(C(=O)N2CCCC(C(=O)NCCc3ccc(C)cc3)C2)cc2sccc21 (stereo unspecified),3%
COCC(=O)NC1CCN(S(=O)(=O)c2ccc(C(=O)O)cc2)CC1,11%
COc1ccc(C(C)N2CC34C=CC(O3)C(C(=O)O)C4C2=O)cc1 (stereo unspecified),-3%
COc1ccc(CCNc2nc(-c3sc(N)nc3C)cs2)cc1OC,4%
Cc1[nH]c(C(=O)N2CCCCC2)c(C)c1C(=O)NC1CCCCC1,7%
N#CCCN1CCN(C(=S)c2ccc(-c3cc(Cl)ccc3Cl)o2)CC1,6%
O=C(CN(CCc1ccccc1)C(=O)CNS(=O)(=O)c1ccc(F)cc1)NCc1ccco1,3%
CCN(CC)C(=O)Sc1cccc2cccnc12,?
CC1CCN(CC(O)COC2CCC(C(C)(C)C)CC2)CC1 (stereo unspecified),-4%
O=C(NCC1CCCO1)c1ccc(NC(=O)C2CCCCC2C(=O)O)cc1 (stereo unspecified),-10%
Cc1cccc(C)c1NC(=O)CSc1nnc([C@@H]2CCCN2C(=O)OC(C)(C)C)o1,4%
CC1(C)CC(=NO)CC(C)(C)N1,5%
FC(F)(F)c1ccccc1-c1cncnc1Nc1ccccc1,?
O=C(Cn1cnc2c(cnn2-c2ccccc2)c1=O)N1CCN(c2ccc(F)cc2)CC1,3%
CCCCOC(=O)C1=C(C)NC2=C(C(=O)CCC2)C1c1cc(OC)ccc1OC (stereo unspecified),?
CCc1nnc(NC(=O)COC(=O)CN2C(=O)c3ccccc3C2=O)s1,1%
CC1CCc2nn(CC(=O)NCCCN3CCCCC3)cc2C1 (stereo unspecified),4%
CS(=O)(=O)N(CCc1ccccc1)CC(=O)NCc1ccco1,-10%
O=S(=O)(NCc1cccnc1)c1ccc(Cl)c(Cl)c1,3%
CC(=O)N1C2(C=CC1(C)C(=O)NCCN1CCOCC1)CCCCC2 (stereo unspecified),17%
O=C(Nc1ccc2c(c1)OCO2)[C@@H]1[C@@H]2C(=O)N(C3CCCCC3)C(=O)[C@@H]2C2c3ccccc3C=CN21 (stereo partly specified),-1%
O=C(CCn1c(=O)sc2ccccc21)NC1=NCCS1,7%
CC(C)COC(=O)N1CC(O)CC1C(=O)O (stereo unspecified),5%
CCN(Cc1ccccc1)C(=O)CCc1nc(-c2ccc(C)cc2)no1,-12%
CCCCCC1=C2CNC(Cc3ccccc3)(C(=O)OC)C=C2C(C)C1=O (stereo unspecified),-23%
O=S(=O)(NC1CCCC1)c1ccc(S(=O)(=O)NC2CCCC2)cc1,-9%
CC(=O)NCCCc1c[nH]c2ccc(Cl)cc12,6%
C=C1C(C(=O)N2CCN(C)CC2)C1C(=O)N1CCN(C)CC1 (stereo unspecified),12%
Cc1ccc(C(=O)Nc2ccc(Cl)cn2)cc1S(=O)(=O)N1CCOCC1,1%
Cc1ccc(C)o1,0%
CCOC(=O)Cc1csc(SCc2nc3ccccc3c(=O)[nH]2)n1,-1%
CC1CCN(c2nc3ccccc3nc2C(C#N)S(=O)(=O)c2ccccc2)CC1 (stereo unspecified),-3%
CCOc1cc(C#N)c(NC(=O)c2cccnc2)cc1OCC,-6%

# A different layout for part of the listing above:
structure: Cc1ccc(C(=O)Nc2ccc(Cl)cn2)cc1S(=O)(=O)N1CCOCC1
  HSD17B inh = 1%

structure: CC1CCN(c2nc3ccccc3nc2C(C#N)S(=O)(=O)c2ccccc2)CC1 (stereo unspecified)
  HSD17B inh = -3%

structure: O=S(=O)(NC1CCCC1)c1ccc(S(=O)(=O)NC2CCCC2)cc1
  HSD17B inh = -9%

# Further compounds:
SMILES,HSD17B inh
O=C(c1ccco1)N1CCC2(CCCN(c3ccccn3)C2)CC1,?
CCOC(=O)C(C)Oc1cccc2c(=O)n(CC(=O)N3CCc4ccccc43)ccc12 (stereo unspecified),3%
O=C(NC1(C(=O)NC2CCCC2)CCCCC1)c1ccc2c(c1)OCO2,-1%
CCOC(=O)c1cc2c(n(-c3ccc(C)cc3)c1=O)CCCC2=O,?
CCOC(=O)c1cc(-c2nnc(-c3ccc(Cl)cc3)o2)c(C)nc1C,?
COc1cc(C(=O)Nc2cccc(-c3nc4ncccc4o3)c2C)cc(OC)c1OC,4%
CC(C)C(NC(=O)OCc1ccccc1)C(=O)OCC(=O)N1CCCCC1 (stereo unspecified),5%
Cc1cc(C(=O)CN2C(=O)c3ccccc3C2=O)c(C)n1Cc1cccs1,3%
Cc1cc(C)cc(N(CCC#N)C(=O)CSc2nc3nc(C)cc(C)n3n2)c1,2%
CC(C)(C)OC(=O)NCc1nc(N)n[nH]1,6%
Cc1ccc(N=C2SCCCN2C(=O)c2ccco2)cc1Cl,-10%
Cc1cccc(NC(=O)CSc2nnc(-c3ccccc3)n2N)c1C,0%
O=C(NCc1ccco1)c1cccnc1-c1nc2ccccc2s1,1%
CCCS(=O)(=O)Nc1cc(C(F)(F)F)ccc1OCCOC,-6%
COc1ccc(C)c2sc(N3CCCC3)nc12,-6%
CCSc1nnc(NC(=O)CCc2ccccc2)s1,0%
CC1CCN(C(=O)Cn2nc(C(F)(F)F)c3c2CCCC3)CC1,-1%
COc1ccccc1CN1CC[C@@]2(CCCN(C(=O)c3cc(C(F)(F)F)cc(C(F)(F)F)c3)C2)C1,-24%
CC1CN(c2ccc(Oc3ccccc3)cc2)c2nc3c(c(=O)[nH]c(=O)n3C)n2C1 (stereo unspecified),6%
Cc1ccc(C)n1-n1cnc2scc(-c3cccs3)c2c1=O,-18%
OC1CN=C2C=CC=CN2C1 (stereo unspecified),25µM*
COc1ccc2cc1Oc1ccc(cc1)C[C@H]1c3cc(c(OC)cc3CCN1C)Oc1c(OC)c(OC)cc3c1[C@H](C2)N(C)CC3,20%
CC(=O)OC[C@@H]1O[C@@H](O/N=C2/C[C@@H](O)[C@@H](O)[C@@H]3[C@@H]4C(=O)N(C5CCCCC5)C(=O)[C@H]4CC[C@@H]23)[C@H](OC(C)=O)[C@H](OC(C)=O)[C@@H]1OC(C)=O,1%[11.4 µM]
CC1=C(C(=O)NC2CCCCC2C)C2(CCC(C)CC2)OC1=O (stereo unspecified),3%
COc1ccc(NC(=O)N2CC3(CCN(C(=O)c4cnccn4)CC3)C2)cc1,7%
NC(=O)c1oc2ccccc2c1NC(=O)C1CCCCC1,-12%
N#C[C@H](C(=O)O)C(c1c(Cl)cccc1Cl)[C@H](C#N)C(=O)O,1%[11.4 µM]
COC(=O)c1ccc(C(/C=C/[C@@H](C)C(=O)NCCc2c[nH]c3ccccc23)NC(=O)OCc2ccccc2)cc1 (stereo partly specified),17%
COC(=O)c1ccc(C(NC(=O)OCc2ccccc2)/C(F)=C/[C@@H](C)C(=O)NCCN2CCOCC2)cc1 (stereo partly specified),-1%
COC(=O)CNC(=O)c1c(-c2c(Cl)cccc2Cl)noc1C,3%
O=C(C1COc2ccccc2O1)N1CCN(c2ccccc2)CC1 (stereo unspecified),0%
COc1ccc(C(=O)Nc2cccc(-c3nc4ncccc4o3)c2C)cc1OC,18%
COC(=O)CCSCc1cn2cc(Cl)ccc2n1,-9%
COc1cccc(CNC(=O)Nc2cccs2)c1,25µM*
Cc1cccc(C(=O)NCCN2CCN(c3ccccc3)CC2)c1,15%
O=C(CSc1nc2ccccc2o1)NCc1ccco1,-7%
Cc1ccc(Cn2nnc3c(=O)n(Cc4cc(C)ccc4C)cnc32)cc1,-24%
O=C(O)CCc1nc2cccnc2n1Cc1ccccc1,-7%
CC1CCN(C(=O)CSc2nnc(Cc3ccccc3)o2)CC1,5%
CC(=O)c1c(C)[nH]c(C(=O)Nc2cccnc2)c1C,0%
Cc1nn(C)c(C)c1S(=O)(=O)N1CCC(C(=O)NCC2COc3ccccc3O2)CC1 (stereo unspecified),7%
COC(=O)c1ccc(C23CC4(C2)[C@H](CN(Cc2ccc(-c5ccccc5)cc2)[C@@H]4c2ccccc2)C3c2ccc(C(F)(F)F)cc2)cc1 (stereo partly specified),0%
COCCn1nnnc1C(c1ccc(OC)cc1)N1CCN(c2ccccc2F)CC1 (stereo unspecified),-7%
CCc1c(C)c2ccc(OCC(=O)N(C)C)c(C)c2oc1=O,32µM*
CC1CN=C(NC2CCCCC2C)S1 (stereo unspecified),1%
CCOC(=O)c1[nH]c2cc(OC)c(OC)cc2c1NC(=O)CN(C)C1CCCCC1,3.2µM*
CC(C)CC(c1nnnn1CC1CCCO1)N1CCN(c2nc3ccccc3s2)CC1 (stereo unspecified),0%
COc1cccc([C@H](O)Cn2cc(-c3ccc(CON=C(C)C)cc3)nn2)c1,-9%[11.4 µM]
O=C(NCCc1ccccn1)c1ccc(COc2ccccc2)o1,9%
CC1CN(C(=O)C2CCCCC2)C(C)CN1C(=O)C1CCCCC1 (stereo unspecified),-9%

# Reprinted at random: 4 entries already listed
SMILES,HSD17B inh
Cc1nn(C)c(C)c1S(=O)(=O)N1CCC(C(=O)NCC2COc3ccccc3O2)CC1 (stereo unspecified),7%
CCc1c(C)c2ccc(OCC(=O)N(C)C)c(C)c2oc1=O,32µM*
COCCn1nnnc1C(c1ccc(OC)cc1)N1CCN(c2ccccc2F)CC1 (stereo unspecified),-7%
CC1CN=C(NC2CCCCC2C)S1 (stereo unspecified),1%

# 2 entries from above in another layout:
O=C(NCCc1ccccn1)c1ccc(COc2ccccc2)o1
  HSD17B inh: 9%
COc1ccc2cc1Oc1ccc(cc1)C[C@H]1c3cc(c(OC)cc3CCN1C)Oc1c(OC)c(OC)cc3c1[C@H](C2)N(C)CC3
  HSD17B inh: 20%

# Later entries.
SMILES,HSD17B inh
COc1ccc(-c2cc(C(F)(F)F)nc(N3CCCCC3)n2)cc1OC,32µM*
O=C(CSc1n[nH]c(-c2ccncc2)n1)NC1CCS(=O)(=O)C1 (stereo unspecified),?
CC[C@@H]1O[C@]2(C=C[C@@H]1C)C[C@H]1C[C@H](CC=C(C)[C@@H](O[C@@H]3C[C@H](OC)[C@H](O[C@@H]4C[C@H](OC)[C@H](O)[C@H](C)O4)[C@H](C)O3)[C@@H](C)C=CC=C3CO[C@@H]4[C@@H](O)C(C)=C[C@@H](C(=O)O1)[C@]34O)O2,-13%[25.6 µM]
CCOC(=O)CSc1nnc(-c2ccc(NS(=O)(=O)c3ccc(C)cc3)cc2)o1,-18%
O=c1cc(N2CCN(Cc3ccccc3)CC2)[nH]c(=O)n1Cc1ccc(F)cc1,-3%
CCCCOCCCNC(=O)CN1C(=O)c2ccccc2C1=O,-5%
COc1ccc(NC(=O)N2CCCC3(CCN(S(C)(=O)=O)CC3)C2)cc1,0%
COc1ccc(N2C(=O)CSC2c2ccncc2)cc1 (stereo unspecified),11%
CC(=O)Nc1ccc(NC(=O)C2CCCN(c3nnc(-n4cccc4)s3)C2)cc1 (stereo unspecified),-3%
COc1ccc(CCNC(=O)c2nc3ncccn3n2)cc1OC,8%

# Continued; the last two above are carried over.
SMILES,HSD17B inh
CC(=O)Nc1ccc(NC(=O)C2CCCN(c3nnc(-n4cccc4)s3)C2)cc1 (stereo unspecified),-3%
COc1ccc(CCNC(=O)c2nc3ncccn3n2)cc1OC,8%
OC[C@@H]1O[C@@H](O)[C@H](N=Cc2ccc3c(c2)OCO3)[C@@H](O)[C@@H]1O,-5%[11.4 µM]
Cc1cc(-n2nnc3ccccc32)nc2ccccc12,-10%
CC1(C)OC2CO[C@]3(COS(N)(=O)=O)OC(C)(C)OC3C2O1 (stereo partly specified),5%
CS(=O)(=O)N(CC(=O)Nc1ccc2c(c1)OCCO2)Cc1ccc(Cl)cc1,-12%
Clc1ccccc1OCCCCn1ccnc1,7%
COc1ccc(-n2c(SCCC#N)nnc2-c2cc(Cl)ccc2OC)cc1Cl,-14%
C=CCn1c(=O)c2c(C)c(C)sc2n2c(Nc3ccc(OC)cc3)nnc12,13%
